Source: PubChem BioAssay
nsP2pro inh – Primary qHTS for inhibitors of NSP2Pro chikungunya virus (CHIKV); Polyprotein P1234 (Chikungunya virus (strain S27-African prototype)), Q8JUX6; FRET peptide cleavage, nsP2pro, fluorescence 1 h; Potency, µM (titrated, usually from 24.9 µM), without a hit: at the top dose activity change, negative = inhibition, usual class: inhibitors; 1.1% of 31,000 active; active means well fitted inhibition curve with a large enough effect; inconclusive means small, poorly fitted or top-dose-only effect; inactive means no such curve, though single readings can be large or run the other way; further: nearly all actives have a fitted effect of over 60% in size; a reference inhibitor and vehicle were the controls
Target sequence (Q8JUX6 whole entry, looked up): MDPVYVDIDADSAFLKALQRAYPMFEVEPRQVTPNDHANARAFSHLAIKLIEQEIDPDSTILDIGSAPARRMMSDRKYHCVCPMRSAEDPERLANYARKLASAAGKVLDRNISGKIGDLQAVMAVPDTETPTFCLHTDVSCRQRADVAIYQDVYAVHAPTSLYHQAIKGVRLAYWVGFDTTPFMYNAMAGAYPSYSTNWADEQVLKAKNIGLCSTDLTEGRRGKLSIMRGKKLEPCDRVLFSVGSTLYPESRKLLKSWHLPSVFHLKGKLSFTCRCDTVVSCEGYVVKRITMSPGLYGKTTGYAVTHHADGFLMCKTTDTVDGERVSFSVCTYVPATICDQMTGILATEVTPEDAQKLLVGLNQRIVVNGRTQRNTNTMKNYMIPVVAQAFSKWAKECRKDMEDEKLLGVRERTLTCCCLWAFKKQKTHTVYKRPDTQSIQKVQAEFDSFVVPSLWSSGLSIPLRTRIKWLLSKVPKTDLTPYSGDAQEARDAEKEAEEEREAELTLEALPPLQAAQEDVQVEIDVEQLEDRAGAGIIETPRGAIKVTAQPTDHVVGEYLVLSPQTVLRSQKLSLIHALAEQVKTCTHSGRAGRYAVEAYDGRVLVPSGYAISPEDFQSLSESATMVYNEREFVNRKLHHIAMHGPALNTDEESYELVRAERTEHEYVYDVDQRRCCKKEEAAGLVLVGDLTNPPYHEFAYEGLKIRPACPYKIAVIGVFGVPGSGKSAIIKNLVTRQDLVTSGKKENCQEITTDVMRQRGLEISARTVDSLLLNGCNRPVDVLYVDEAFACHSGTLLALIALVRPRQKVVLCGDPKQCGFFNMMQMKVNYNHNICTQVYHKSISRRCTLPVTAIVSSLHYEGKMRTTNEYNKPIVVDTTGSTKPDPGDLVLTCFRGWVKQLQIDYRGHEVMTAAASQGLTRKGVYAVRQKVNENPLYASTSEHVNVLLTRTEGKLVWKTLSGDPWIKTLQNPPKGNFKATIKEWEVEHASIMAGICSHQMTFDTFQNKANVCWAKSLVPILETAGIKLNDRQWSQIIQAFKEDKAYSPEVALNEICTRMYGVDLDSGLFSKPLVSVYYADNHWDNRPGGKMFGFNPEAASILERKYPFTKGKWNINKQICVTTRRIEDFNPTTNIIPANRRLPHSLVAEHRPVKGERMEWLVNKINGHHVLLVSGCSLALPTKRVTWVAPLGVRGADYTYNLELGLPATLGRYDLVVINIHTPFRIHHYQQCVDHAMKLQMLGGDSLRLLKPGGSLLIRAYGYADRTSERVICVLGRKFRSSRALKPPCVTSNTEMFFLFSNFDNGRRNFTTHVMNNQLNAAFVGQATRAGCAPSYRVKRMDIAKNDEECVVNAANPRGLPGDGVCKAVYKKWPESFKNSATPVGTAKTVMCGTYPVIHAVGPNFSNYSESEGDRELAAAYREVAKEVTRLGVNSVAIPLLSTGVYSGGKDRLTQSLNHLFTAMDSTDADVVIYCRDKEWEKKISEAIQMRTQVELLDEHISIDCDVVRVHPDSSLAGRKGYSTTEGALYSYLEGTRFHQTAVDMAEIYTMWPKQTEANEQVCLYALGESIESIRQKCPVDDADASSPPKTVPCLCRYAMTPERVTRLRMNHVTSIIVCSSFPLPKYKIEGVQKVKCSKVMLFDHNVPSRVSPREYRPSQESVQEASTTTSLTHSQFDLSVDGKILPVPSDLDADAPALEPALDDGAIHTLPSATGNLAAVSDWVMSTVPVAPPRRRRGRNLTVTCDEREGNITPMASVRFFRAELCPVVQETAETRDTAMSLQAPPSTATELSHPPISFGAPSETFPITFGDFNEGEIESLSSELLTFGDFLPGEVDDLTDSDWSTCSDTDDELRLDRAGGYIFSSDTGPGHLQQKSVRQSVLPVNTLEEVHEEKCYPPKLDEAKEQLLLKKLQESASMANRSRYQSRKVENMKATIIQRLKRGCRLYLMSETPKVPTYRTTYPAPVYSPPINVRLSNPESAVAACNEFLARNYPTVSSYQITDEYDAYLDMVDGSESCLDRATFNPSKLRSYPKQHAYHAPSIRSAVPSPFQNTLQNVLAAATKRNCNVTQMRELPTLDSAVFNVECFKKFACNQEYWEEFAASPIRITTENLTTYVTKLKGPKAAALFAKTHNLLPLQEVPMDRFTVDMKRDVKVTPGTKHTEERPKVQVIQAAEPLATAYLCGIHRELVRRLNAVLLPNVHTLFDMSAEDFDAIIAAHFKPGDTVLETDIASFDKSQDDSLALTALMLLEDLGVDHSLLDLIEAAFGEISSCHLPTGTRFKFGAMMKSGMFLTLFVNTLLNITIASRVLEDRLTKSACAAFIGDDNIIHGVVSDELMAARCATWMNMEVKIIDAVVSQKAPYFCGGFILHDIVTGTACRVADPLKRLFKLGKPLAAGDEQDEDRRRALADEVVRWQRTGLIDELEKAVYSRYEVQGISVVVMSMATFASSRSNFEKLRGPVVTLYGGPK
* marks the source's active call; other numbers are inactive results; i = inactive; ? = inconclusive; & = joins results of further samples; [ ] = remark or other dose. On the % scale 0 is the no-effect control and ±100 the full control effect; potency means the concentration at half of the fitted maximal effect.

| canonical_smiles | nsP2pro inh |
| --- | --- |
| C#CCCCn1cc(-c2cccc3c2N[C@H](C)CC(=O)N3)cn1 | -9% |
| O=[N+]([O-])c1cn2c(n1)OC[C@@H](OCc1ccc(OC(F)(F)F)cc1)C2 | -7%&-13% |
| COCCNC(=O)Cn1c(=O)n(CCCCCC(=O)Nc2ccccc2)c(=O)c2sccc21 | -9% |
| O=C(Nc1cc(F)cc(F)c1)Nc1nnc(-c2ccncc2)s1 | 3% |
| COc1ccc(OC)c(CCNC(=O)C(C)n2c(C)c3cnn(-c4ccccc4)c(=O)c3c2C)c1 (stereo not drawn) | -8% |
| Cc1ccccc1NC(=O)c1c(C)oc2ccc(O)c(CN3CCCCCC3)c12 | -11% |
| COc1ccccc1CNC(=O)CSc1nnc(C)c2c(C)n(-c3ccccc3)nc12 | -4% |
| CCc1ccc(NC(=O)c2sc3nc(C)cc(C)c3c2NC(=O)c2ccccc2)cc1 | ? |
| CCc1ccc2oc(-c3ccc(NC(=O)c4cc5ccccc5o4)cc3)nc2c1 | 10% |
| O=C(NCCCN1CCN(c2ccccc2F)CC1)c1nnc(Cc2ccc(Cl)cc2Cl)o1 | -11% |
| CN(C)c1cccc(-c2ncnc(N3CCC(C(N)=O)CC3)n2)c1 | i |
| O=[S+]([O-])(Nc1ccccc1)c1ccc2c(c1)OCCN(Cc1cncnc1)C2 | -10%[39.2 µM] |
| COc1ccc2nc3cc(Cl)ccc3c(Nc3cc(CN4CCCC4)c(O)c(CN4CCCC4)c3)c2n1 | 50%[activator] |
| COc1ccc(CN2COc3ccc4c(-c5ccccc5)cc(=O)oc4c3C2)cc1 | -4% |
| Cc1csc(CNc2ncnc3ccc(-c4cccnc4)cc23)c1 | i |
| Cc1ccc2c(c1)c1c(c(=O)n(-c3ccccc3C)c(=O)n1Cc1ccccc1F)n2C | -17% |
| c1coc(-c2ccnc3nc(C4CCC4)nn23)c1 | -18% |
| Cc1ccc(-c2ccc(=O)n(CC(=O)NCCCc3ccco3)n2)cc1 | -24% |
| CC(C)CC(NC(=O)C1CCC(C)CC1)C(=O)OCC(=O)c1ccc(Cl)cc1 (stereo not drawn) | -20% |
| CS(=O)(=O)N1CCc2ccc(C(=O)NCc3ccc(OC(F)(F)F)cc3)cc21 | ? |
| Cc1ccc(C)c(-c2cc(C(F)(F)F)nn2-c2ccc(S(N)(=O)=O)cc2)c1 | 8% |
| COc1ccc(CCNC(=O)Cn2nc(-c3ccc(C)cc3)ccc2=O)cc1OC | -3% |
| Cc1cc2c(s1)c1cnn(Cc3cc(F)ccc3F)c(=O)c1n2C | -3% |
| COc1ccc2ncnc(NCC3CCCO3)c2c1-c1ccc2c(c1)OCO2 (stereo not drawn) | 3% |
| COCCN1CC(CO)C2(CCN(C3CCC3)CC2)C1 (stereo not drawn) | -2% |
| CN(C)c1cccc(-c2ccnc(N3CCC(C(N)=O)CC3)n2)c1 | i |
| CC(=O)Nc1ccc(OCC(=O)NCc2ccccc2C)nc1 | -10% |
| Cc1noc2c(-c3cnn(C)c3)cc(-c3cccnc3)nc12 | i |
| Cc1cccc(CN2CCc3nnc([C@@H]4C[C@@H](O)CN4C)n3CC2)c1 | -6% |
| O=C(Nc1ncc(Cc2ccc(C(F)(F)F)cc2)s1)c1cnc(-c2ccccc2)[nH]1 | -4% |

Looked up by structure from above (3):
| canonical_smiles | nsP2pro inh |
| --- | --- |
| CN(C)c1cccc(-c2ncnc(N3CCC(C(N)=O)CC3)n2)c1 | i |
| O=[S+]([O-])(Nc1ccccc1)c1ccc2c(c1)OCCN(Cc1cncnc1)C2 | -10%[39.2 µM] |
| C#CCCCn1cc(-c2cccc3c2N[C@H](C)CC(=O)N3)cn1 | -9% |

3 of the compounds above, field by field:
> O=C(Nc1cc(F)cc(F)c1)Nc1nnc(-c2ccncc2)s1
  nsP2pro inh: 3%
> COc1ccc(OC)c(CCNC(=O)C(C)n2c(C)c3cnn(-c4ccccc4)c(=O)c3c2C)c1 (stereo not drawn)
  nsP2pro inh: -8%
> Cc1ccccc1NC(=O)c1c(C)oc2ccc(O)c(CN3CCCCCC3)c12
  nsP2pro inh: -11%

(next part)
| canonical_smiles | nsP2pro inh |
| --- | --- |
| Oc1ccccc1-c1nc(/C=C/c2ccccc2Cl)no1 | -29% |
| COc1cccc(S(=O)(=O)N2C[C@@H](Oc3cccnc3)C[C@H]2C(=O)NC2CC2)c1 | i |
| O=C(c1cccnc1)N1CCC(Nc2cccnc2)C1 (stereo not drawn) | 2% |
| C[C@@H](COc1ccc(Oc2ccccc2)cc1)Oc1ccccn1 | -10%[39.2 µM] |
| CC(C)=CCC[C@](C)(OC1OC(COC2OCC(O)C(O)C2O)C(O)C(O)C1O)[C@H]1CC[C@]2(C)[C@@H]1[C@H](O)C[C@@H]1[C@@]3(C)CC[C@H](OC4OC(CO)C(O)C(O)C4OC4OC(CO)C(O)C(O)C4O)C(C)(C)[C@@H]3CC[C@]12C (stereo partly drawn) | -12%[10 µM] |
| CCOC(=O)c1cccc(NS(=O)(=O)c2ccc(NC(=O)Cc3ccc(Cl)c(Cl)c3)cc2)c1 | -8% |
| O=C(CCNS(=O)(=O)c1ccc2c(c1)CCCC(=O)N2)NCc1ccccc1Cl | -13% |
| O=S(=O)(Nc1cccc2ccncc12)c1ccc(NCc2cccc(Cl)c2O)cc1 | i |
| COc1ccc(-c2c(C)c3cc(OC(=O)N4CCOCC4)ccc3oc2=O)cc1OC | -12% |
| COc1ccc([C@H]2C[C@@H](O)[C@@H](O)[C@@H]2NS(=O)(=O)c2ccc(Cl)cc2)cc1 | -3%[39.2 µM] |
| C=C1C(=O)O[C@H]2[C@H]1CC/C(C)=C/CC[C@@]1(C)O[C@@H]21 | ? |
| CC(C)(C)Cn1c(N)nc2ccc(-c3[nH]c(C(C)(C)C)nc3-c3ccc(F)cc3)nc21 | 297%[activator] |
| FC(F)(F)c1cccc(N2CCN(C(=S)Nc3ccncc3)CC2)c1 | 1% |
| Cc1ccc(N(C)S(=O)(=O)c2ccc(-c3coc(C)n3)cc2)cc1 | -7% |
| O=C(N[C@@H]1CN(C(=O)Cn2c(=O)oc3ccccc32)CC[C@@H]1CO)c1ccccc1 | -8% |
| O=C1CN(/N=C/c2ccc([N+](=O)[O-])o2)C(=O)N1 | -20% |
| Cc1cccc(S(=O)(=O)c2cn(Cc3ccccc3)c3cc(N4CCCC(C)C4)c(F)cc3c2=O)c1 (stereo not drawn) | -15% |
| Cc1ccccc1Cn1c(=O)n(CCc2ccccc2)c(=O)c2sc3ccccc3c21 | -21% |
| N[C@@H](Cc1cc(I)c(Oc2cc(I)c(O)c(I)c2)c(I)c1)C(=O)O | ? |
| N=C(N)c1ccc(OCCCOc2ccc(C(=N)N)cc2Br)c(Br)c1 | 45%[activator] |
| C=CC(C)(C)c1[nH]c2cc3c(cc2c1CC1NC(=O)C2CCCN2C1=O)C=CC(C)(C)O3 (stereo not drawn) | -10%[10 µM] |
| O=C(NCc1ccnc2[nH]ccc12)c1cc(F)ccc1Br | ? |
| C=C(NC(=O)C(=C)NC(=O)c1csc(C2=NC3c4csc(n4)C4NC(=O)c5csc(n5)C(C(C)(O)C(C)O)NC(=O)C5CSC(=N5)C(=CC)NC(=O)C(C(C)O)NC(=O)c5csc(n5)C3(CC2)NC(=O)C(C)NC(=O)C(=C)NC(=O)C(C)NC(=O)C(C(C)CC)NC2C=Cc3c(C(C)O)cc(nc3C2O)C(=O)OC4C)n1)C(N)=O (stereo not drawn) | 160%[activator] |
| Cc1cccc(CSc2nc3cccnc3n2Cc2ccc(C(=O)NCc3cccs3)cc2)c1 | 13% |
| CCOc1ccc(-n2c(SCC(=O)Nc3ccc4c(c3)OCCO4)nc3c([nH]c4ccccc43)c2=O)cc1 | -14% |
| COC(=O)c1c(-c2cccs2)csc1NC(=O)c1ccc(C(C)C)cc1 | ? |
| CC(=O)C1CCN(c2ncc(-c3ccc4c(c3)OCCCO4)s2)CC1 | -10% |
| Cn1ccnc1CN1CC2(CCN(C(=O)C3CC3)CC2)CC1C(=O)O (stereo not drawn) | 1% |
| COc1ccc(-c2cc(C(F)(F)F)n3nc(C(=O)NCC45CC6CC(CC(C6)C4)C5)cc3n2)cc1OC | -22% |
| COc1ccc(C(C)NC(=O)c2c(C)sc3ccn(C)c(=O)c23)cc1 (stereo not drawn) | i |
| CCCc1nc(C)c2c(=O)[nH]c(-c3cc(S(=O)(=O)N4CCN(CC)CC4)ccc3OCC)nn12 | -5%&6% |
| O=c1cc(N2CCOCC2)oc2c(N3CCN(c4ccccn4)CC3)nccc12 | -3%[39.2 µM] |
| CC(=O)N[C@@H](C(=O)O[C@H]1CCC(C)(C)[C@@H]2CCC3=C(COC3=O)[C@@]12C)C(C)C | ? |
| CCOC(=O)c1cccc(NC(=O)N2CC=C(c3c[nH]c4ccccc34)CC2)c1 | -11% |
| CNC(=O)[C@@H]1CN(C(=O)c2ccc(OC)nc2OC)C[C@H]1c1n[nH]c(C)n1 | -2% |
| CC(=O)N1c2ccccc2C2(O)CC3C(=O)NC(CC(C)C)C(=O)N3C12 (stereo not drawn) | ? |
| CC(=O)Oc1cc(C(C)C)c(OCCN(C)C)cc1C | 29% |
| CCCCC(O)/C=C(C)/C=C/C=C/C(=O)N1CCCC1=O (stereo not drawn) | -3% |
| CN(C)[C@@H]1CN(Cc2ccccn2)CC[C@@H]1CO | i |
| O=C1c2ccccc2OCC2(CCN([S+](=O)([O-])c3ccccc3)C2)N1[S+](=O)([O-])c1ccccc1 (stereo not drawn) | -4% |
| Cc1ccc(-n2c(=O)[nH]c3sc4c(c3c2=O)CCCC4)cc1 | -11% |
| C[C@]12CC[C@@H]3c4ccc(O)cc4CC[C@H]3[C@@H]1CCC2=O | -7% |
| CCc1csc(CNc2cc(C3CC(O)C3)nc(N)n2)n1 (stereo not drawn) | 3% |
| COC(=O)c1c(NC(=O)CCCOc2ccccc2)sc2c1CCC(C)C2 (stereo not drawn) | -57% |
| COc1ccccc1-c1cc([C@H]2CN3CC[C@H]2C[C@@H]3COC(=O)NC2CCCCC2)nc(C)n1 | 10µM* |
| O=C(NCC(c1cccnc1)N1CCN(c2ccccc2F)CC1)C(=O)Nc1ccc(F)cc1F (stereo not drawn) | -6% |
| COCCN(CCOC)c1nc(C)nc2c1nc(-c1ccccc1)n2CCCN1CCCCC1C (stereo not drawn) | 0% |
| Cc1ccccc1-c1nc(NCc2ccc(-c3cccnc3)cc2)c2ccccc2n1 | -4% |
| Cc1ccc(CN2CCNC(=O)C2CC(=O)N(CC(C)C)CC(C)C)cc1 (stereo not drawn) | -4% |
| Cc1cccc(C(=O)N2CCOC(CCCc3ccccc3)C2)n1 (stereo not drawn) | 0% |
| Cc1ccc(C)c(Cn2c(=O)n(Cc3ccco3)c(=O)c3oc4ccccc4c32)c1 | ? |
| CCOc1ccc(CCNC(=O)CCCn2nc(C)c3sc4ccccc4c3c2=O)cc1 | -16% |
| Cc1cccc(CNC(=O)C2CCN(c3nc4ccc(Cl)cc4[nH]3)CC2)c1 | -22% |
| CCc1csc(CNC(=O)c2ccc(N(C)Cc3cnn(C)c3)nc2)n1 | i |
| FC(F)(F)c1cccc(-c2ccc(CNc3nc(-c4ccccc4C(F)(F)F)nc4ccccc34)cc2)c1 | 3% |
| COc1cccc(Nc2c(C(N)=O)cnc3c(C)cc(S(=O)(=O)c4cccc(C(=O)N(C)C)c4)cc23)c1 | 9% |
| Cc1cc(NS(=O)(=O)c2ccc(NC(=O)Cc3ccc(Cl)cc3Cl)cc2)no1 | i |
| CN(C)CCN(Cc1ccccc1)C(=O)c1cc(-c2ccc(F)cc2)n2nc(C(C)(C)C)cc2n1 | 143%[activator] |
| NC(=O)OCC(COC(N)=O)c1ccccc1 | 13% |
| O=C(c1ccc2c(c1)ncn2-c1cccc(C(F)(F)F)c1)N1CCCCC1 | -9% |

The list continues.
| canonical_smiles | nsP2pro inh |
| --- | --- |
| O=C1CCN(Cc2c[nH]c3ccccc23)CCCC(C(=O)NCc2ccccc2)CCN1 (stereo not drawn) | -7% |
| NCCCCNc1ncnc2ccc(-c3ccc4c(c3)OCO4)cc12 | i |
| O=C(Cn1cc(SCc2ccc(C(F)(F)F)cc2)c2ccccc21)N1CCOCC1 | ? |
| O=C(OCC#CCSc1nnc(-c2cccc3ccccc23)s1)c1cccs1 | 4% |
| O=C(NCC1CC1)c1nc2c(o1)CCN(Cc1cccc(F)c1)CC2 | ? |
| COCCN1C(=O)c2ccccc2NC1c1ccc(OC)c(COc2c(C)cc(NC(C)=O)cc2C)c1 (stereo not drawn) | 0% |
| CC(C)c1ccc(NC(=O)N2c3ccccc3Sc3ccccc32)cc1 | -16% |
| CC(=O)Nc1sc2c(c1-c1ccc(N[S+](C)(=O)[O-])cc1)CCNC2 | -7% |
| CNC(=O)[C@@H]1CN(C(=O)c2ccc(OC)cc2C)C[C@H]1COC | -2% |
| COc1ccc(OC)c([C@@H]2C[C@H](NC(C)=O)C[C@H](Cc3ccccc3)O2)c1 | 2% |
| CN1CC(=O)NC1=N | -11% |
| CCCN1CCc2nc(N3CCN(c4ncccn4)CC3)ncc2C1 | ? |
| Cc1cc(=O)oc2c3c(ccc12)OCN(Cc1ccc(Cl)cc1)C3 | 12% |
| COCCCNS(=O)(=O)c1ccc(N2CCCCS2(=O)=O)cc1 | -8% |
| O=c1c2ccccc2nc2sc(NCc3ccc(Oc4ccccc4)cc3)nn12 | i |
| O=c1ccn([C@@H]2O[C@H](COP(=O)(O)OP(=O)(O)O)[C@@H](O)[C@H]2O)c(=O)[nH]1 | -24% |
| OC[C@H]1O[C@@H](O[C@H]2[C@H](O)[C@@H](CO)O[C@@H](OCc3ccccc3)[C@@H]2O[C@@H]2OC[C@](O)(CO)[C@H]2O)[C@H](O)[C@@H](O)[C@@H]1O | -7%[10 µM] |
| CCOC(=O)c1nc(Nc2ccccc2C)c2ccccc2n1 | -8% |
| OC[C@@H]1CN(Cc2ccco2)C[C@H]1c1ccccn1 | -25% |
| Clc1cc2c(NC3CCCC3)nnc(-c3ccncc3)c2cc1Cl | 11%[10 µM] |

Not all compounds are listed; the hit share may differ from the screen's.
